# Assay outcomes from PubChem BioAssay.
# Cruzain inh noDet: inhibitors of Trypanosoma cruzi cruzain without detergent. P25779. purified cruzain, Z-FR-AMC fluorescence, no detergent. Potency, µM, for the others: max response, negative = inhibition, most hits filed as inhibitors. 200,000 compounds, 2.3% hits; active = well fitted curve in the direction sought with a large enough effect; inconclusive = small, poorly fitted or top-dose-only effect, or another doubt; inactive = no such curve, though single readings can be large; an effect the other way counts as inactive or inconclusive;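 also: plate controls were enzyme without inhibitor for no effect and buffer without enzyme for full effect; nearly all actives have a fitted effect of over 40% in size; top concentration of the series not given in the record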
# Target sequence (P25779 123-467 limits assumed): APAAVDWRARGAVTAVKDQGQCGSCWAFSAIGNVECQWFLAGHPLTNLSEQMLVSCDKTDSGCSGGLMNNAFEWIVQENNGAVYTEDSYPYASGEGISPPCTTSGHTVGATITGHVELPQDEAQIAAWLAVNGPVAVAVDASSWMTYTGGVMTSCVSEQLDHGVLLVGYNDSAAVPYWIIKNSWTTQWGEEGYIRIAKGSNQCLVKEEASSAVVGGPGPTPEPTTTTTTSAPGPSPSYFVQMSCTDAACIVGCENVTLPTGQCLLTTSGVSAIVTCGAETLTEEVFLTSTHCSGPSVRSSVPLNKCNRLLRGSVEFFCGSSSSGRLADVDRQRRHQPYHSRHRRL
#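 Detergent-free condition (0.00005% Triton X-100) in acetate buffer pH 5.5 with DTT. 1.5 nM enzyme and compound were pre-mixed 15 min, then 2 uM Z-FR-AMC substrate added; reaction progress from fluorescence change between first and third reads (60 s).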
# 2A StopGo: lowers the luciferase signal of an FMDV 2A StopGo reporter; human cells with a luciferase reporter of 2A StopGo recoding; control for the full effect not named in the record; Potency, µM (top dose mostly 57.9 µM), without a hit: at the top dose signal change, negative = less light; 410,000 compounds, 1.2% hits; active = well fitted falling curve with a large enough effect; inconclusive = small, poorly fitted or top-dose-only effect; inactive = no such curve, though single readings can be large or run the other way; tested in HEK293T cells; also: % is scaled to controls: 0 for no effect and ±100 for the full control effect; nearly all actives have a fitted effect of over 45% in size; luciferase light after 4 h
# SARS PLP yeast: SARS-CoV PLP inhibition in yeast; S. cerevisiae expressing SARS-CoV PLpro, growth rescue; control for the full effect not named in the record; Potency, µM (highest dose often 32.9 µM), without a hit: at the top dose activity, positive = growth rescue; 330,000 compounds, 0.19% hits; also: 0% is about no effect; nearly all actives have a fitted effect of over 55% in size; growth read by luminescence after 48 h
# LASV entry inh: Lassa virus entry inhibition; Lassa virus pseudotype entry inhibition, cell reporter; control for the full effect not named in the record; 300,000 compounds, 1.2% hits; Potency, µM (titrated, usually from 37.9 µM), for inactives: at the highest dose activity change, negative = inhibition, most hits filed as inhibitors; AID 540256; active means well fitted inhibition curve with a large enough effect; inconclusive means small, poorly fitted or top-dose-only effect, or effect the other way; inactive means flat fitted curve, though single readings scatter; tested in HEK293 cells; also: % is scaled to controls: 0 for no effect and ±100 for the full control effect; nearly all actives have a fitted effect of over 50% in size; luciferase read-out
# RE007 growth inh: less growth of the S. pombe RE007 Vpr strain; S. pombe RE007 Vpr strain, BacTiter-Glo ATP luminescence, 24 h; control for the full effect not named in the record; Potency, µM (doses to about 92.2 µM), inactives show at the top dose activity change, negative = less growth; 360,000 compounds, 0.21% hits; active = well fitted falling curve with a large enough effect; inconclusive = small, poorly fitted or top-dose-only effect; inactive = no such curve, though single readings can be large or run the other way;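 also: % is scaled to controls: 0 for no effect and ±100 for the full control effect; nearly all actives have a fitted effect of over 50% in size; the assay follows cell death caused by Vpr and the record does not say whether a fall means rescue or toxicity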
#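 Fission yeast strain RE007, carrying one chromosomally integrated HIV-1 vpr copy, was seeded at OD 0.01 in PMG+AL medium with 23 nL pinned compound. After 24 h at 30 °C and 99% humidity, viability was read by BacTiter-Glo luminescence.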
# NS1 inh: inhibitors of influenza NS1 protein function. 270,000 compounds, 0.4% hits. AID 2326. S. cerevisiae slowed by influenza A NS1, growth recovery by OD600. Potency, µM (highest dose often 46.1 µM), without a hit: at the highest dose activity, positive = more growth; also: actives are rising curves; nearly all actives have a fitted effect of over 50% in size
#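 In this qHTS, NS1 from influenza A is expressed in budding yeast, where it slows growth. Cells are switched from glucose to 2% galactose medium (pH 6.0, -URA), treated with compound, and growth recovery is read at OD600.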
# MARV entry inh: inhibitors of Marburg virus binding or cell entry; Marburg virus pseudotyped entry inhibition, cell reporter; control for the full effect not named in the record; about a third of the inactives were read at about 46 µM; Potency, µM (doses to about 37.8 µM), inactives show top-dose activity change, negative = inhibition, most hits filed as inhibitors; AID 540276; 300,000 compounds, 1.8% hits; active = well fitted inhibition curve with a large enough effect; inconclusive = small, poorly fitted or top-dose-only effect, or effect the other way; inactive = flat fitted curve, though single readings scatter; tested in HEK293 cells; about a fifth of its hits are not listed in these tables; also: % is scaled to controls: 0 for no effect and ±100 for the full control effect; luciferase read-out
# Cruzain inh Det: cruzain (T. cruzi) inhibition with detergent | P25779 | 200,000 compounds, 0.43% hits | purified cruzain, Z-FR-AMC fluorescence, 0.01% Triton | Potency, µM, without a hit: max response, negative = inhibition, usual class: inhibitors; active = well fitted curve in the direction sought with a large enough effect; inconclusive = small, poorly fitted or top-dose-only effect, or another doubt; inactive = no such curve, though single readings can be large; an effect the other way counts as inactive or inconclusive;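 also: plate controls were neutral wells for no effect and buffer without enzyme for full effect; nearly all actives have a fitted effect of over 40% in size; top concentration of the series not given in the record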
#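 Cruzain (1.5 nM) preincubated 15 min at RT with compound in 100 mM sodium acetate pH 5.5, 5 mM DTT, 0.01% Triton X-100. Reaction started with 2 uM Z-FR-AMC; AMC fluorescence (ex 360/em 450 nm) change over 60 s gave rate.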
# * = called active by the depositor; ? = inconclusive; . = not tested or not shown; & = joins results of further samples; [ ] = another dose, or the depositor's remark. Unless noted, calls follow the shape of the dose curve; as a rule, active means well fitted rising curve with a large enough effect; inconclusive means small, poorly fitted or top-dose-only effect; inactive means no such curve, though single readings can be large or run the other way. Potency is read from the fitted curve at half-maximal effect. Random draw from the library (roughly 4.7% active in at least one column).
SMILES,Cruzain inh noDet,2A StopGo,SARS PLP yeast,LASV entry inh,RE007 growth inh,NS1 inh,MARV entry inh,Cruzain inh Det
CC[C@H](C)[C@H](NC(N)=O)C(=O)Nc1ccc(NC(C)=O)cc1,.,3%,0%,24%,3%,0%,2%[46.1 µM],.
CN(c1ccc(OCC(=O)OCC(=O)Nc2cccc([N+](=O)[O-])c2)cc1)S(=O)(=O)c1ccc(F)cc1,.,38%[activator],2%,6%[46.1 µM],3%,.,8%[46.1 µM],.
CCOC(=O)C1=C(C)NC(C)=C(C(=O)OCC)C1C(=O)OCC(=O)N1CCc2ccccc21,?,-14%,0%,-7%,-1%,-6%,1%&1%,-6.0%
C#CCOCCOCCOCCNc1nc(N2CCN(C(=O)C([C@@H](C)CC)n3cc(C(N)Cc4ccc(O)cc4)nn3)CC2)nc(N2CCN(C(=O)[C@H](CCC(=O)O)n3cc(C(N)[C@H](C)CC)nn3)CC2)n1 (stereo partly specified),.,-7%,-3%,.,-3%,13%,.,.
CC1CCN(c2nn3c(=O)c(C(=O)NCc4ccc(Cl)cc4)cnc3s2)CC1,-7%,-9%,.,-15%[46.1 µM],.,.,.,3.7%
O=C(NC(=O)c1c(F)cccc1F)O/N=C1\CCCc2occc21,.,-19%,2%,.,-7%,-4%,.,.
COc1ccc(OC)c(NC(=O)Cn2c(C)nc3ccccc3c2=O)c1,.,-22%,-2%,-12%,-8%,-6%,-21%[46.1 µM],.
Cc1ccc(C)c(NC(=O)N2CCN3CCCCC3C2)c1 (stereo unspecified),13%,-10%,.,-2%[46.1 µM],.,.,.,-0.9%
CC#CCN(CC#CC)S(=O)(=O)c1ccc(-n2cnnn2)c(OC)c1,6%,7%,0%,-11%,6%,-3%,?,0.2%
CCCCCCC1C(C#N)=C(N)OC2=C1C(=O)CCC2 (stereo unspecified),-29%,-15%,-4%,.,-8%,-44%,.,-7.8%
Cc1nc2ccc(S(=O)(=O)NCC(=O)N3CCCCC3)cc2s1,0%,20%,17%,-1%,0%,-6%,12%,1.7%
CCc1c(C)nc(N)n2c(SCC(=O)N3CCN(c4ccccc4F)CC3)nnc12,-6%,.,6%,.,.,3%,-1%,8.4%
O=C(Nc1cccc(Cl)c1)Nc1cc(S(=O)(=O)N2CCCCC2)ccc1Cl,?,?,-11%,?,-22%,22%,4µM*,-3.1%
Fc1cccc(NC(=S)NCCc2ccccc2)c1,-3%,6%,?,?,-12%,-24%,?,-10%
CCc1ccc(Nc2ncnc3nc[nH]c23)cc1,.,2%,1%,?,-2%,-6%,?,.
COc1cc(C(C)=O)ccc1Oc1ncnc2c1cnn2-c1cccc(Cl)c1,?,-17%,-7%,?,14%,7%,-4%,-2.3%
CCCc1ncc(C[n+]2ccccc2C)c(N)n1,-10%&1%,0%&-12%,.,.,-17%,.,.,-0.6%&2.4%
Cc1ccc(S(=O)(=O)N2CCOCC2)cc1NC(=O)CNCc1ccccc1Cl,.,?,-4%,?,-21%,.,?,.
Cn1c(=O)[nH]c(=O)c2c1nc(SCC(O)CCl)n2Cc1ccccc1 (stereo unspecified),.,-19%,13%,.,4%,10%,.,.
COc1ccc(S(=O)(=O)Nc2ccc(Oc3ncccn3)c(Cl)c2)cc1,22%,47%[activator],16%,-2%,-26%,4%,?,-1.1%
COc1cc(OC)cc(C(=O)Nc2nnc(SCC(=O)NCc3ccco3)s2)c1,.,100µM*,5%,?,-4%,15%,4%[46.1 µM],.
COc1cc(-c2nc(-c3ccccc3)c(-c3ccc(F)cc3)[nH]2)cc2c1OCO2,10%,?,-22%,?,.,29%,-6%,-2.9%
Cc1cc(C(C)(C)C)oc1C(=O)N(CC(=O)NC1CCCC1)c1cccc(C(F)(F)F)c1,27%,.,-9%,?,6%,12%,23µM*,-8.2%
CC(C)(C)C1CCc2c(sc(NC(=O)c3ccccc3F)c2C(=O)N2CCCCC2)C1 (stereo unspecified),4%,-4%,.,?,.,.,-22%[46.1 µM],-1.7%
Cc1cc2cc(CCNC(=O)CCc3ccccc3)c(=O)[nH]c2cc1C,.,?,3%,.,6%,10%,.,.
O=C(O)CCC(=O)Nc1ccc(C(=O)OC2CCCCC2)cc1,7%,.,5%,-2%,5%,5%,-13%,1.5%
O=C1OCCC1Sc1nnc(-c2ccc(Cl)cc2)n1Cc1ccccc1 (stereo unspecified),3%,0%,?,13%,-8%,1%,-3%,0.0%
COc1ccccc1CNN,.,10%,-1%,.,1%,.,5%[46.1 µM],.
CCOCCCNS(=O)(=O)Cc1ccccc1,-4%,-8%,0%,2%,-4%,5%,-2%,2.0%
Cc1ccc(NC(=O)C2=CCN(S(=O)(=O)c3ccc(F)cc3)CC2)c(C)c1,1%,-12%,7%,-18%,-2%,3%,?,1.7%
COc1ccc(S(=O)(=O)Cc2ccc(C(=O)NCCCN(C)c3ccccc3)o2)cc1,12%,0%,2%,-2%,-1%,0%,-4%,0.1%
CC(C)c1ccc(CNc2nc(-c3ccco3)nn2S(=O)(=O)c2ccc(F)cc2)cc1,7%,-4%,.,22%[46.1 µM],.,.,5%[46.1 µM],-6.8%
Cc1nn(Cc2ccc(Cl)cc2Cl)c(C)c1NC(=O)CCl,6%,22µM*,17%,?,16%,-1%,?,-0.2%
COc1ccccc1CNC(=O)CCNS(=O)(=O)c1ccc2[nH]c(=O)oc2c1,.,3%,6%,.,-5%,18%,.,.
Cc1cccc(-n2cc(CNCCc3nc(C)cc(C)n3)c(-c3cccc(F)c3)n2)c1,.,-18%,-2%,.,18%,1%,.,.
COc1ccc(CCNC(=O)c2ccc(Cn3c(SCc4ccccc4)nc4cccnc43)cc2)cc1,4%,-28%,.,.,.,.,-20%[46.1 µM],-8.4%
CC1=NN(c2ccc(C(=O)O)cc2)C(=O)CC1,.,?,3%,11%,15%,22%,-6%,.
CCOC(=O)COc1cc2c3c(c(=O)oc2cc1C)CCCC3,-2%,-11%,-18%,14%,-5%,-45%,0%,-4.3%
Cc1ccc(OCc2cc(C(=O)N3CCC(Oc4cccnc4)CC3)no2)cc1C,.,-3%,-13%,.,4%,-17%,.,.
CCOC(=O)c1c(NC(=O)CSc2nnnn2C)sc(C(=O)N(C)C)c1C,.,-9%,-3%,.,3%,.,18%[46.1 µM],.
COc1ccc(NC(=O)C2CCC(C(C)(C)C)CC2)cc1S(=O)(=O)N1CCCCC1 (stereo unspecified),?,18µM*,-4%,?,8%,17%,11µM*,-8.0%
Cc1nn(-c2ccccc2)c(C)c1C(=O)OCc1ccc(C#N)cc1,.,-17%,-1%,.,7%,-10%,.,.
CC(=O)N1CCCC1c1nc2ccccc2n1Cc1ccccc1 (stereo unspecified),-4%,-16%,.,0%[46.1 µM],.,.,-7%[46.1 µM],-3.3%
Cc1ccc(CONC(=O)c2ccc(OC(F)F)cc2)cc1,.,20%,-6%,-26%[46.1 µM],-21%,.,?,.
Cc1cc(C)n2ncc(C(=O)NC3CCCCC3)c2n1,.,-12%,0%,27%[46.1 µM],-5%,0%,1%&1%[46.1 µM],.
CCOC(=O)C1(CCCc2ccccc2)CCN(C(=O)CCc2cnn(C)c2)CC1,.,0%,0%,?,7%,-3%,-15%[46.1 µM],.
C=CCOC(=O)Nc1c(C(=O)OC)[nH]c2ccccc12,-5%,-5%,8%,-6%,-14%,-18%,?,-0.1%
CC(=O)Nc1cccc(NC(=O)CCNC(=O)c2ccccc2)c1,.,4%,8%,-3%,-6%,6%,26%,.
COc1cccc(C(=O)Nc2ccc3c(c2)C(=O)N(CC2CCCO2)C3=O)c1 (stereo unspecified),.,?,8%,8%,-5%,-9%,?,.
COC(=O)C1=C(C)OC(N)=C(C#N)C1c1cccnc1 (stereo unspecified),-2%,-26%,2%,-5%,-6%,14%,3%[46.1 µM],-1.2%
O=C(Nc1ccc(Cl)cc1)C(c1ccccc1)N1CCOCC1 (stereo unspecified),.,7%,0%,.,12%,0%,.,.
COc1ccc(C(=O)Nc2ccccc2)cc1S(=O)(=O)NCc1ccco1,.,14%,-1%,-17%[46.1 µM],-2%,0%,?,.
Cc1cc(=O)oc2c1c(C)nn2-c1ccc(Cl)cc1,.,0%,-1%,-24%,-10%,-3%,1%[46.1 µM],.
COC(=O)C1=C(C)Nc2sc(C(N)=O)c(N)c2C1c1ccncc1 (stereo unspecified),-12%,0%,-10%,3%,5%,19%,-5%,-3.8%
O=C(/C=C/c1ccccc1)N(Cc1cccs1)C1CCS(=O)(=O)C1 (stereo unspecified),.,0%,0%,-7%[46.1 µM],0%,-2%,23%[46.1 µM],.
CC1CN(C(=O)N2CCC(C(=O)N3CCN(c4ccccc4)CC3)CC2)c2cc(Cl)ccc2O1 (stereo unspecified),-6%,0%,.,?,.,.,.,-7.7%
CCCCN(C)CCn1c(=S)[nH]c2cc(OCC)c(OCC)cc2c1=O,.,-9%,0%,10%[46.1 µM],13%,.,?,.
CCC(=O)NC(Cc1ccccc1)c1nc2ccccc2[nH]1 (stereo unspecified),.,19%,-2%,.,-5%,13%,.,.
CCc1cc([N+](=O)[O-])cc(CC)c1N,-2%,-23%,1%,10%,-16%,-54%,5%[46.1 µM],-4.6%
COc1ccc(CNC(=O)c2cnc3sc(N4CCOCC4)nn3c2=O)cc1,1%,-12%,.,-2%[46.1 µM],.,.,.,8.1%
CCCCN=C(N)/C(C(=O)OCC)=C(\O)c1ccc(OC)cc1,-9%,16%,5%,?,-1%,-74%,27%,-1.1%
Cc1cccc(/C=N\NC(=O)c2sccc2-n2cccc2)c1,-3%,-22%,4%,4%,-8%,-2%,4%,-11%
CCOc1c(C=C(C#N)C#N)c2ccccc2n1CC,-9%,?,-15%,-13%,-5%,-6%,1%,-14%
